High-throughput results (PubChem)
hNpr1 antagonist: antagonists of human natriuretic peptide receptor Npr1; P16066; HEK293 hNpr1 GloSensor cGMP, ANP-stimulated luminescence; Potency, µM (titrated, usually from 46.3 µM), for the others: top-dose activity change, negative = inhibition, usual class: inhibitors; 76,000 tested, 1.6% active; active = well fitted inhibition curve with a large enough effect; inconclusive = small, poorly fitted or top-dose-only effect; inactive = no such curve, though single readings can be large or run the other way;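 also: nearly all actives have a fitted effect of over 60% in size; nearly all hits also lower the signal before the agonist is added; a reference antagonist and vehicle were the controls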
Target sequence (P16066 whole entry, looked up): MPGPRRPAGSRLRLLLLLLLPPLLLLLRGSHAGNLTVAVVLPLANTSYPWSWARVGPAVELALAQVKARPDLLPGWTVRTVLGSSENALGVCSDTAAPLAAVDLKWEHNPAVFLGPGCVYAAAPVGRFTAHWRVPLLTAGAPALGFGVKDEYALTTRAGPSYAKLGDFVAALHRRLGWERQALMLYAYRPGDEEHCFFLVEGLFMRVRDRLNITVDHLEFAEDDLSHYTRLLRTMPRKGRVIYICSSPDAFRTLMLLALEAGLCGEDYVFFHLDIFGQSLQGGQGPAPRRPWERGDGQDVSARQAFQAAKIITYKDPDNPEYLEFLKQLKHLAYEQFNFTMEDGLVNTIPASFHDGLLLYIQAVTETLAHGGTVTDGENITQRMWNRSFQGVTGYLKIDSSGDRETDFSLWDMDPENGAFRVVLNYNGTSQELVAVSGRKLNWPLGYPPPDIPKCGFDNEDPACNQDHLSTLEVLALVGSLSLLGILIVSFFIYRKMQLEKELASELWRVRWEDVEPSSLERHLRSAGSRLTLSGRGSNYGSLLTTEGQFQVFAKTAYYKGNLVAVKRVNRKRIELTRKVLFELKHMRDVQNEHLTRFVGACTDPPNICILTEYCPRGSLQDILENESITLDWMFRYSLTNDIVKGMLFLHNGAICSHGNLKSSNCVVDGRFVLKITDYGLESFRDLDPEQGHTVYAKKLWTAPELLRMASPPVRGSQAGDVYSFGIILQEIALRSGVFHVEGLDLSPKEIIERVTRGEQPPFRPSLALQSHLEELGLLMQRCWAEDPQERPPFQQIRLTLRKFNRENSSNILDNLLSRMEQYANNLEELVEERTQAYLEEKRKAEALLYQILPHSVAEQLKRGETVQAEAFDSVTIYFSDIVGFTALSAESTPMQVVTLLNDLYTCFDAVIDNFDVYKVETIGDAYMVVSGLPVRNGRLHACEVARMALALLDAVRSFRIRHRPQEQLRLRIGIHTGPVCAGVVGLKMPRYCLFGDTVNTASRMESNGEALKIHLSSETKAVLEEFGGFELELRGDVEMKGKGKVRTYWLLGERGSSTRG
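HEK293 cells stably expressing human Npr1 and cGMP GloSensor pGS-40F, loaded 2 h with 2% GloSensor reagent, given compound 30 min at room temperature. Luminescence read before and 20 min after 0.1 nM hNppA.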
Numbers without * were called inactive; ? = inconclusive; [ ] = remark or other dose. % is scaled to controls: 0 for no effect and ±100 for the full control effect; potency is read from the fitted curve at half-maximal effect. An excerpt; count on the stated rates, not on these rows.

SMILES	hNpr1 antagonist
COCCN(C)C(=O)c1ccc2c(c1)C1(CCN(CC3CC3)C1)CN2Cc1ccccc1 (stereo unspecified)	0%[70.6 µM]
CNC(=O)[C@H]1C[C@H](Oc2cccnc2)CN1C(=O)Nc1cccc(C)c1	15%
NCCn1cc(C(=O)NCC(c2cccnc2)N2CCCCC2)nn1 (stereo unspecified)	5%
O=C(c1ccc(N2CCC(CO)C2)nc1)N1CCC(N2CCOCC2)CC1 (stereo unspecified)	5%
COc1ccccc1C(=O)Nc1ccnn1C1CCN(C(=O)CCN)CC1	4%
Cc1ncccc1OC1(C(=O)NCc2nnc3n2CCC3)CCNCC1	4%
CC(C)CC(=O)N1CCC2(CC1)C(=O)N(C)c1ccccc12	2%
Fc1ccc(C2Cn3nnc(-c4nc(-c5ccccc5)no4)c3CO2)cc1 (stereo unspecified)	-6%
O=C([C@@H]1C[C@H](F)CN1C(=O)Nc1cccc(Br)c1)N1CCCCC1	1%
O=C(c1cc(Cl)ccc1Cl)N1CCN(c2cc(-c3ccccc3)[nH]n2)CC1	-18%
Cc1c(CN2CCC3(CCNCC3)C2)c(=O)n(-c2ccccc2)n1C	5%
O=C(c1n[nH]c2ccccc12)N1CCC2(CC1)N(c1ccccc1)C(=O)CS2=O (stereo unspecified)	3%
COc1ccc(CCNC(=O)CN2C(=O)NC3(CCC(C)CC3)C2=O)cc1OC (stereo unspecified)	0%
Cc1ccc(CN2CCCCCNC(=O)CC2c2ccccc2)o1 (stereo unspecified)	-5%
CN(C)C(=O)c1ccc2c(c1)N(C)C(CC(=O)NC1(CO)CCCCC1)CO2 (stereo unspecified)	-2%
COc1ccc(-c2ccnc3nc(C4CC4)nn23)cc1	-2%
O=C(c1n[nH]c(=O)c2ccccc12)N1CCC[C@H](n2c(=O)n(CC3CC3)c3cccnc32)C1	-22%
CC(C)NC(=O)c1csc(-c2cccc(OC(C)C)c2)n1	-20%
COCCNC(=O)C1COC2(CCN(C(=O)c3ccc(F)cc3)CC2)N1C(=O)c1cccc(C)c1 (stereo unspecified)	2%
CNc1nc2c(c(C(=O)N3CCCC3)n1)CN(C(=O)c1cc(C(C)C)on1)CC2	-2%

Entries above that contain a carbonyl joined to an NH by a bond outside any ring:
SMILES	hNpr1 antagonist
CNC(=O)[C@H]1C[C@H](Oc2cccnc2)CN1C(=O)Nc1cccc(C)c1	15%
NCCn1cc(C(=O)NCC(c2cccnc2)N2CCCCC2)nn1 (stereo unspecified)	5%
COc1ccccc1C(=O)Nc1ccnn1C1CCN(C(=O)CCN)CC1	4%
Cc1ncccc1OC1(C(=O)NCc2nnc3n2CCC3)CCNCC1	4%
O=C([C@@H]1C[C@H](F)CN1C(=O)Nc1cccc(Br)c1)N1CCCCC1	1%
COc1ccc(CCNC(=O)CN2C(=O)NC3(CCC(C)CC3)C2=O)cc1OC (stereo unspecified)	0%
CN(C)C(=O)c1ccc2c(c1)N(C)C(CC(=O)NC1(CO)CCCCC1)CO2 (stereo unspecified)	-2%
CC(C)NC(=O)c1csc(-c2cccc(OC(C)C)c2)n1	-20%
COCCNC(=O)C1COC2(CCN(C(=O)c3ccc(F)cc3)CC2)N1C(=O)c1cccc(C)c1 (stereo unspecified)	2%

The listing continues:
SMILES	hNpr1 antagonist
O=C(NCCc1ccccc1)N1CC(c2noc(C3CCCN3CC3CC3)n2)C1 (stereo unspecified)	10%
COCCN[C@H]1[C@@H]2OC[C@@H](O2)[C@@H](NC(=O)Nc2cccc(OC)c2)[C@@H]1O	-3%[70.6 µM]
CCN(CC)c1cc(CCC(=O)N2CCN(c3ccc(Cl)cc3)CC2)ccn1	?
N[C@H]1CO[C@H]2[C@@H]1OC[C@@H]2n1cc(CC2CCCCC2)nn1	-8%[70.6 µM]
CN1C(=O)c2cccn2CC1C(=O)N1CCOCC1 (stereo unspecified)	-3%
CN1CCCCCCN(C(=O)NC2CCCCC2)[C@H]2CCC[C@H]2C1=O	2%
O=C(NCC1CC1)c1noc(-c2ccccc2F)n1	-12%
O=C(Nc1ccc2n(c1=O)C[C@H]1C[C@@H]2CN(C(=O)COc2ccccc2)C1)c1ccccc1	1%
CCCn1nc(C)c(-c2cc(C(=O)N3CCCC(Cc4nncn4Cc4ccccc4)C3)[nH]n2)c1C (stereo unspecified)	-5%
Cn1ccnc1CN1C(=O)CO[C@H](c2ccc(NC(=O)Nc3ccccc3)cc2)[C@H]1CO	0%
CC1(COc2ccc(-c3nc(COc4ccccc4)no3)cn2)CCCNC1 (stereo unspecified)	?
COc1ccc(-n2nc(C3CCN([S+](=O)([O-])c4c(C)noc4C)CC3)[nH]c2=O)cc1	-12%
Cc1ccc(C)c(NC(=O)Cn2c(-c3ccccc3)nc(C)cc2=O)c1	-10%
O=C(N[C@H](c1ccccc1)C1CC(O)C1)c1ccc(-n2cccn2)cc1 (stereo partly specified)	1%
Cc1[nH]cnc1-c1nccn1-c1ccc(NC(=O)CN2CCOCC2)cc1	8%
O=C(NCCc1ccccc1)C1CCCN(C2CCN(Cc3nccs3)CC2)C1 (stereo unspecified)	3%
Cc1ccc(-n2c(C3CCN(C(=O)c4cc(C)cc(C)c4)CC3)n[nH]c2=O)cc1	5%
CN(C)c1cc(NCc2cccnc2-n2cnc3ccccc32)ncn1	8%
O=C(NCc1ccc2c(c1)OCO2)c1nc(-c2cccnc2)c2ccccn12	-3%
O=C(NC1CCN(c2cc(-c3cccs3)[nH]n2)C1)c1ccc(Br)o1 (stereo unspecified)	-24%
CCOc1ccccc1CCCN1CC2(CCNCC2)CCC1=O	8%
Cc1cc(F)ccc1OC1CN(CCC(C)C)C1	5%[70.6 µM]
COC[C@@H]1CCCN1CCC(=O)Nc1ccc(C(=O)OC)cc1	3%
O=C(NCc1cccc(C(F)(F)F)c1)C1CN(c2cccc(Cl)c2)C(=O)N1 (stereo unspecified)	18%
COCCCN(CCC(=O)NCCc1ccccc1)C(=O)c1cc(C)oc1C	-2%
CC1=C[C@@H](CNS(=O)(=O)c2cccc(C#N)c2)[C@H](C(C)C)C[C@H]1CC(=O)NCc1cccnc1	-3%
Cc1ccccc1CNC(=O)CN1C(=O)C2(CCNCC2)Nc2ccccc21	5%
COc1ccc(-c2cc(N3CCCN(C(=O)CCc4ccccc4)CC3)n[nH]2)cc1	1%
CC1(c2ccccc2)CCCN(C(=O)CCn2ccc(=O)[nH]c2=O)C1 (stereo unspecified)	-3%
Cn1cc(C#N)cc1C(=O)N1CCCC(C)(Cc2ccc3c(c2)OCO3)C1 (stereo unspecified)	-1%
C=CCO[C@@H]1CCN2C(=O)c3cc(-c4ccccc4F)ccc3NC(=O)[C@H]12	2%[70.6 µM]
COc1ccc(C(CC(=O)N(C)Cc2ccccn2)c2ccccc2)cc1 (stereo unspecified)	0%
CN(CCc1noc(C2CN(C(=O)c3cc(F)ccc3F)C2)n1)C(=O)C1CC1	-3%
CC(=O)Nc1ccc(S(=O)(=O)N2C[C@@H]3C[C@H](C2)c2c(-c4ccc(OC(F)(F)F)cc4)ccc(=O)n2C3)cc1	-12%
Cc1nc(Cc2ccc(N(C)C)cc2)n(CCO)n1	9%
O=C(c1ccc2c(c1)C1(CCN(CC3CC3)C1)CN2Cc1ccccc1)N1CCOCC1 (stereo unspecified)	1%[70.6 µM]
CN1CC2(CCN(C(=O)Cc3cccc(F)c3)CC2)CC1C(=O)N1CCOCC1 (stereo unspecified)	-4%
CCc1cccc2c(C(CC(=O)N3CCCCC3)c3cccc(OC)c3)c[nH]c12 (stereo unspecified)	-4%
CCn1nc(C)c(-c2cc(C(=O)N3CCC(CCOc4ccccc4)C3)no2)c1C (stereo unspecified)	?
Cc1noc(-c2ccn3c(CNC(=O)c4cccnc4)nnc3c2)n1	-3%
COc1ccc(NC(=O)Cn2ccn3nc4c(c3c2=O)CCCCC4)cc1OC	17%
COCCNC(=O)c1ccc2c(c1)N(C)C(CC(=O)NCc1ccccn1)CO2 (stereo unspecified)	1%
COc1ccc(CC(=O)N2CCN(c3cc(-c4ccccc4)[nH]n3)CC2)cc1OC	0%
CCCCCN(CCC(=O)NCCCOC)C(=O)c1ccoc1	-9%
O=C(NCC1Cn2cccc2C(=O)N1Cc1ccccc1)c1ccccn1 (stereo unspecified)	2%
CC(=O)N1CCN([C@H]2[C@@H]3OC[C@@H](O3)[C@@H](NCc3ccccc3O)[C@@H]2O)CC1	2%[70.6 µM]
CC(C)C(=O)N1CCC2(CC1)OC(=O)N(CCOc1ccccc1)C2(C)c1cccnc1 (stereo unspecified)	-5%[70.6 µM]
O=C(c1ccco1)N1CCN(C(=O)C2CCc3ncc(-c4ccsc4)n3C2)CC1 (stereo unspecified)	-15%
COc1ccc(-c2nc(C)nc3c2CCN(Cc2cc(C)on2)CC3)cc1	16%
COc1ccc(-c2ccnc3nc(-c4cccs4)nn23)cc1OC	-2%
Next part:
SMILES	hNpr1 antagonist
O=C(NCc1cccnc1)[C@@H]1C[C@@H](O)CN1C1CCN(C(=O)c2cccs2)CC1	-10%
Cc1cnc(C(=O)NC2C[C@H]3CC[C@@H](C2)N3C(=O)c2nn(C)c3ccccc23)cn1 (stereo partly specified)	-2%
Cc1noc2c(N3CCN(Cc4ccccc4)CC3)cc(-c3cccnc3)nc12	-17%[70.6 µM]
COc1cccc(CNC(=O)COc2ccc(NC(=O)C3CC3)cn2)c1	0%
Cc1nn(C)c(C(=O)N[C@H]2CCOC[C@H]2C2CCOCC2)c1Cl	3%
CN(C)c1ccc(CN2CCNc3cc(-c4ccccc4)ncc3C2)cc1	-3%[70.6 µM]
COCCNC(=O)[C@@H]1C[C@@H](O)CN1C1CCN(C(=O)CCc2c[nH]c3ccccc23)CC1	1%
C[S+](=O)([O-])c1ccc(-c2cnc3[nH]cc(CC(=O)N4CCOCC4)c3c2)cc1	0%[70.6 µM]
COc1ccc(C(=O)N2C[C@@H]3OCC(=O)N(Cc4cccnc4)[C@@H]3C2)cc1	0%[70.6 µM]
O=C(C[C@@H]1CCNC[C@@H]1Cc1cc(CSc2ccccc2)on1)N1CCN(c2ccccc2)CC1	-19%
CCNC(=O)N[C@H]1C[C@@H](Cc2cc(COc3ccccc3)on2)C1(C)C	4%[70.6 µM]
COC(=O)CNC(=O)N1CC2CC(C1)[C@H]1CCCC(=O)N1C2 (stereo partly specified)	-3%
Cc1ccc(C(=O)N2CCC(OC3CCN(C)CC3)CC2)s1	1%
O=C(CC1COCCN1C(=O)CCn1ccccc1=O)N1CCCCCC1 (stereo unspecified)	4%
Cc1cccc(C(=O)N2CCC(Oc3ccc(-c4noc(C(C)C)n4)cc3)C2)c1 (stereo unspecified)	11µM*
COC[C@@H]1CN(Cc2cccc(C#N)c2)C[C@H]1C(=O)N(C)C	-14%
COCC(=O)N(C1CCOCC1)C1CCN(S(=O)(=O)c2c(C)nn(C)c2C)CC1	7%
CC(C)OC(=O)N1CCC(Oc2ccc3c(cnn3CCC(=O)O)c2)CC1	1%[70.6 µM]
CCCN1C(CC(C)C)=NS(=O)(=O)c2cc(NC(=O)c3ccccc3Cl)ccc21	-19%
CN(Cc1nccn1C)C(=O)c1csc2nc(-c3ccc(C(F)(F)F)cc3)cn12	-11%
CC(=O)NCC(=O)N1C[C@@H](COc2cccnc2)[C@H](c2ccccn2)C1	2%
O=C(NCc1nnc2cc(-c3nc(C4CC4)no3)ccn12)C1CCCCC1	7%
Cc1nc2cccnc2n1CC1CCCN(S(=O)(=O)c2ccc(F)cc2F)C1 (stereo unspecified)	?
COc1ccc(-n2c(CCN)n[nH]c2=O)c(C)c1	0%
O=C(c1cccnc1)N1CCC2(CC1)NCCc1c2[nH]c2ccccc12	17%
CC1=C[C@@H](CN2CCC(CO)CC2)[C@H](C(C)C)C[C@H]1Cc1nnc(-c2ccc([N+](=O)[O-])cc2)o1	-2%
COCCN(Cc1c(C)nn(C)c1C)C(=O)[C@H]1CC[C@@H](N)C1	9%
O=C(COc1ccccc1)NC1CCCc2c1[nH]c1ccc(F)cc21 (stereo unspecified)	-2%
Cc1ccc(NC(=O)N2CCCC(Cn3cnc4cccnc43)C2)cc1Cl (stereo unspecified)	-8%
c1ccc(-c2nc(NCc3cc4n(n3)CCCNC4)c3ccccc3n2)cc1	-1%
Cc1[nH]ncc1CNC(=O)CN1CCCc2nc(-c3ccccc3)ncc2C1=O	-1%
CC(C(=O)NC1CCCC1)[C@@H]1CC[C@@]2(C)CC[C@H](N[S+](C)(=O)[O-])[C@@H](C)[C@@H]2[C@H]1O (stereo partly specified)	6%[70.6 µM]
COc1ccc(-n2nc(C3CCN(Cc4cccc5ccccc45)CC3)[nH]c2=O)cc1	11µM*
O=S(=O)(NCC1(COc2ccccc2)C[C@@H](O)[C@@H](O)C1)c1ccc(F)cc1 (stereo partly specified)	7%[70.6 µM]
CC1(C(=O)Nc2cccc(Cl)c2)CCCCC(=O)N1 (stereo unspecified)	3%
CC(C)C(=O)N1CCN(c2nc3c(s2)CC(C(=O)NCCc2cccs2)CC3)CC1 (stereo unspecified)	-9%
O=C(c1n[nH]c2c1CCCC2)N1CCC2(CC1)N=C(c1ccccc1)NO2	-24%
Cc1cn2nc(C(=O)Nc3cccc(F)c3)cc2c(N(C)Cc2ccccc2)n1	13%
CCCn1ccc2sc(C)c(C(=O)NCc3ccc(C)cc3)c2c1=O	4%
Cc1ccc2nc(CO[C@H]3CN(Cc4ccccc4)C[C@H]3F)[nH]c2c1	-26%[70.6 µM]
CC(C)(C)C1CCC2(CC1)NC(=O)N(CC(=O)N1CCCCC1)C2=O (stereo unspecified)	0%

Pulled by compound from above:
SMILES	hNpr1 antagonist
CC1(COc2ccc(-c3nc(COc4ccccc4)no3)cn2)CCCNC1 (stereo unspecified)	?
O=C(C[C@@H]1CCNC[C@@H]1Cc1cc(CSc2ccccc2)on1)N1CCN(c2ccccc2)CC1	-19%
